Calb biofilm kill – clotrimazole potentiators killing C. albicans biofilm, primary screen, 4-compound mixtures. C. albicans biofilm persisters + clotrimazole, fluorescence viability; primary screen in compound mixtures of four per well. inhibition, % at 7.6 µM. 120,000 compounds, 0.02% hits;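 active = inhibition above 30.3% in the primary screen of four-compound pools, then above 30% when the compound was retested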;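 also: compounds exposed to preformed 24 h biofilms for 48 h; the number belongs to the whole pool; some results filed as inactive read as strong as hits; inactives centre near 12; 0% = biofilm with clotrimazole alone and 100% = kill control; retested singly at about 60 µM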
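Probe or stimulus – Clotrimazole 50 µg/mL co-treatment · System – C. albicans biofilms · Schedule – 24 h biofilm formation, then 48 h compound exposure, 37 °C · Evaluation – percent inhibition of biofilm viability · Technique – 2-h Alamar Blue fluorescence, 535/590 nm excitation/emission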
* = called active by the depositor. This is a subset; the hit share may differ from the screen's.

For CN(C(=O)COC(=O)c1cnc(Cl)c(Cl)c1)C1CCS(=O)(=O)C1 (centres undefined) the results were Calb biofilm kill 13.
`O=C(Nc1ccccc1)c1cc2ccc3ccccc3c2s1` gave Calb biofilm kill 15.
Screening Cc1ccc([N+](=O)[O-])c2c1C(N1CCCCC1)C(C)(C)O2 (centres undefined) returned Calb biofilm kill 10.
For COc1cccc(CN2CCN(C(=O)c3cc(-c4ccccn4)nc4ccc(Cl)cc34)CC2)c1 the results were Calb biofilm kill 15.
Cc1c(N=C2NC(=O)/C(=C/c3ccc(O)cc3)S2)c(=O)n(-c2ccccc2)n1C was read as Calb biofilm kill 9.
For COc1ccccc1NS(=O)(=O)c1ccc(Cl)c(NC(=O)CN2C(=O)c3ccccc3C2=O)c1 the results were Calb biofilm kill 19.
Screening COC(=O)c1ccncc1C(=O)Nc1ccc(OC)cc1 returned Calb biofilm kill -2.
COc1cc(CCC(=O)OCC(=O)Nc2c(C)cc(C)cc2C)cc(OC)c1OC was read as Calb biofilm kill 14.
Screening O=C(COC(=O)CNS(=O)(=O)/C=C/c1ccccc1)Nc1cc(S(=O)(=O)N2CCCCC2)ccc1Cl returned Calb biofilm kill 8.
CN1C(C(=O)NCc2ccccc2)CC2Cn3c(nc4cc5ccccc5cc43)C21 (centres undefined) was read as Calb biofilm kill 15.
CCC(=O)Nc1nnc(SCC(=O)NCCc2ccc(OC)c(OC)c2)s1 was read as Calb biofilm kill 6.
`CNC(=S)NNC(=O)c1sccc1C` gave Calb biofilm kill 1.
`CCc1ccc(NC2CC(=O)N(CCc3ccc(OC)c(OC)c3)C2=O)cc1` (centres undefined) gave Calb biofilm kill 8.
Cc1ccc(NC(=O)COC(=O)Cn2cnc3ccccc32)cc1S(=O)(=O)N(C)C was read as Calb biofilm kill 9.
`Cc1ccc(S(=O)(=O)N2CCN(CC(=O)N/N=C/C=C/c3ccccc3)CC2)cc1` gave Calb biofilm kill 19.
`CCCCCC(=O)NNC(=S)NC(=O)c1cccc([N+](=O)[O-])c1` gave Calb biofilm kill 14.
`O=C(Cc1ccc(S(=O)(=O)N2CCCCC2)s1)Nc1ccc(F)cc1F` gave Calb biofilm kill -15.
Cc1cccc(OCc2nnc(SCC(=O)Nc3ncc(C)s3)o2)c1 was read as Calb biofilm kill 16.
`O=C1Nc2ccccc2S/C1=C/NCc1ccccc1Cl` gave Calb biofilm kill 18.
For COc1ccc(C2CC(c3ccccc3)=NN2C(=O)COC(=O)COc2ccccc2)cc1 (centres undefined) the results were Calb biofilm kill 17.
Screening Cc1cnc2cc([N+](=O)[O-])ccc2n1 returned Calb biofilm kill 11.
Screening COc1ccc(C(=O)/C=C/c2cn(CC(O)CN3CCN(C)CC3)c3ccccc23)cc1OC (centres undefined) returned Calb biofilm kill 10.
Screening CC(C)CC(NC(N)=O)C(=O)OCC(=O)Nc1ccc(OC(F)F)cc1 (centres undefined) returned Calb biofilm kill -4.
Screening Cc1ccc(S(=O)(=O)/N=C/c2ccc(N(C)C)cc2)cc1 returned Calb biofilm kill 16.
Screening COC(=O)c1c(NC(=O)COC(=O)c2ccc(NC(=O)CC#N)cc2)sc2c1CCCCC2 returned Calb biofilm kill 32.
For Cc1ccc(/C(N)=N/OC(=O)Cc2ccccc2)cc1 the results were Calb biofilm kill 14.
Cc1nn(-c2ccccc2)c(C)c1NC(=O)CCl was read as Calb biofilm kill 25.
For CCCCn1c(-c2csc(C(C)C)c2)n[nH]c1=S the results were Calb biofilm kill 8.
For Nc1nc(-c2cc(Cl)cc(Cl)c2OC(F)F)cs1 the results were Calb biofilm kill 5.
`CC(=O)Nc1ccc(CN2CCN(Cc3ccc(F)c(F)c3)C(CCO)C2)cc1` (centres undefined) gave Calb biofilm kill -1.
For Cc1nc2ccccc2n1C1CCN(C(=O)Nc2ccccc2)CC1 the results were Calb biofilm kill 18.
`CCOC(=O)CC1COCCN1Cc1cn(C)nc1-c1ccccc1F` (centres undefined) gave Calb biofilm kill 7.
`O=c1[nH]c2ccccc2[n+]([O-])c1-c1ccccc1` gave Calb biofilm kill 6.
COC(=O)/C(=C\C(=O)c1ccccc1)Nc1ccc(OC)cc1 was read as Calb biofilm kill 24.
`O=C(NC(=S)NC1CCCc2ccccc21)c1ccco1` (centres undefined) gave Calb biofilm kill 13.
`Cc1cnccc1CN(C)Cc1cn(C)nc1-c1cccc(Cl)c1` gave Calb biofilm kill 11.
For O=C(c1ccncc1)N1N=C2CCCCCC2C1(O)C(F)(F)F (centres undefined) the results were Calb biofilm kill 8.
For COc1ccc(Cl)cc1NC(=O)CN(C)CC(=O)Nc1ccccc1-c1ccccc1 the results were Calb biofilm kill 9.
Screening CN(C)c1cccc(C(=O)NCc2ccccc2Cl)c1 returned Calb biofilm kill 11.
Screening CCOc1ccc2oc(C(=O)OC(C(=O)NC(N)=O)C(C)C)c(C)c2c1 (centres undefined) returned Calb biofilm kill 15.
O=C(CCCOc1ccccc1)NCCc1ccccc1 was read as Calb biofilm kill 3.
For COc1cc(/C=N/NC(=O)c2ccc(Cl)c(S(N)(=O)=O)c2)ccc1OCC(N)=O the results were Calb biofilm kill 31.
Screening CCOc1ccc(NC(=O)N2CCC(c3nc4ccccc4[nH]3)CC2)cc1 returned Calb biofilm kill 9.
Cc1ccc(S(=O)(=O)N2CCOCC2)cc1C(=O)OCC(=O)NC1CCS(=O)(=O)C1 (centres undefined) was read as Calb biofilm kill 2.
Screening COC(=O)c1ccc(S(N)(=O)=O)o1 returned Calb biofilm kill 7.
For O=[N+]([O-])c1cc(S(=O)(=O)N2CCCC2)ccc1NCCc1ccccc1 the results were Calb biofilm kill 4.
`Cc1cccc(/C=N/NC(=O)CNc2cccc3ccccc23)n1` gave Calb biofilm kill 21.
COc1ccccc1NS(=O)(=O)c1cccc(NC(=O)C2CC(=O)N(Cc3ccccc3)C2)c1 (centres undefined) was read as Calb biofilm kill 18.
Screening O=C(NNC1=NS(=O)(=O)c2ccccc21)c1ccccc1Cl returned Calb biofilm kill 28.
Cc1cc(C)n(C(=O)CNc2ccccc2Cl)n1 was read as Calb biofilm kill 3.
For Cc1c(Br)c([N+](=O)[O-])nn1CC(=O)NCCc1c[nH]c2ccccc12 the results were Calb biofilm kill 13.
Screening COc1ccc(/C=C/C(=O)NC(=S)Nc2ccc(N3CCN(C(C)=O)CC3)cc2)cc1 returned Calb biofilm kill 13.
CCOc1cc(C(=S)N2CCOCC2)ccc1OC(=O)/C=C/c1ccc(OC)c(OC)c1 was read as Calb biofilm kill 14.
Screening CCN1CCN(c2ccc(NC(=O)c3ccc(C#N)cc3F)cc2Cl)CC1 returned Calb biofilm kill 0.
`Cc1nn(C)c(Cl)c1/C=N/OC(=O)c1ccccc1` gave Calb biofilm kill 10.
Screening COc1ccc(C2C(C#N)=C(N)OC3=C2C(=O)CC(C)(C)C3)cc1OC (centres undefined) returned Calb biofilm kill 14.
Screening CC1(C)C2CC=C(/C=N/NC(=S)NCCc3ccccc3)C1C2 (centres undefined) returned Calb biofilm kill 12.
Screening Cc1ccc(C)n1NC(=O)c1ccc([N+](=O)[O-])cc1 returned Calb biofilm kill 11.
O=C(N/N=C/C=C/c1ccccc1)c1cccnc1 was read as Calb biofilm kill 31.
Screening O=C(NCCc1ccccc1)C(=O)c1c(-c2ccccc2)cc2ccccn12 returned Calb biofilm kill 17.
For CC(/C=C/c1ccco1)=N/NC(=O)c1ccc(C)nc1 the results were Calb biofilm kill 9.
For CCOc1c(CNc2nnnn2C)cccc1OC the results were Calb biofilm kill 11.
Cc1ccc(/C=N/NC(=O)Cc2cccn2C)cc1 was read as Calb biofilm kill 7.
`COc1ccc(/C=N/NC(=O)c2cc(C)n(-c3ccccc3)c2C)cc1OC` gave Calb biofilm kill 16.
Screening CC(C)(C)OC(=O)NCCCC[C@H](NC(=O)c1nc[nH]c1C(=O)NC1CCN(C(=O)OC(C)(C)C)CC1)C(=O)OC(C)(C)C returned Calb biofilm kill 16.
For CCC(=O)NC(=S)Nc1ccc(NC(=O)COc2ccc(Cl)c(C)c2)cc1 the results were Calb biofilm kill -3.
O=c1c2oc3ccccc3c2ncn1Cc1ccc(F)cc1 was read as Calb biofilm kill 12.
Screening CCCCC1=CC2=CC(=O)C(C)(OC(=O)CC)C(=O)C2=CN1c1ccccc1 (centres undefined) returned Calb biofilm kill -2.
For CC(=O)c1ccc(NC(=O)c2noc(C(C)C)c2[N+](=O)[O-])cc1 the results were Calb biofilm kill 24.
Screening O=[N+]([O-])c1cc(CN2CCOCC2)c2cccnc2c1O returned Calb biofilm kill 12.
`Cc1cccc(C)c1NC(=O)c1cccc2c1-c1ccccc1C2=O` gave Calb biofilm kill 13.
Cc1ccnc(N2CCN(C(=O)CSc3nc4ccccc4nc3N3CCC(C)CC3)CC2)c1 was read as Calb biofilm kill 13.
`Cc1ccc(Nc2nnc(SCC(=O)NC3CCS(=O)(=O)C3)s2)c(C)c1` (centres undefined) gave Calb biofilm kill 2.
Screening O=C(/C=C/c1cccs1)Nc1cccnc1 returned Calb biofilm kill 12.
`COC(=O)c1ccc(NC(c2ccc(Cl)cc2)P(=O)(OC)OC)cc1` (centres undefined) gave Calb biofilm kill 9.
COC(=O)c1ccccc1NC(=O)/C=C/C(=O)O was read as Calb biofilm kill 10.
Screening CC1CCN(c2nc(/C=C/c3ccccc3)nc3ccccc23)CC1 returned Calb biofilm kill 14.
For CCSC1=NCCN1C(=O)c1c(-c2ccccc2Cl)noc1C the results were Calb biofilm kill 10.
For Cc1ccccc1C(=O)Nc1c2c(nc3ccccc13)CCCC2 the results were Calb biofilm kill 16.
OC(COc1ccc2ccccc2c1)Cn1cncn1 (centres undefined) was read as Calb biofilm kill 15.
For COc1ccccc1/C=C/C=N/NC(=O)c1ccco1 the results were Calb biofilm kill 33.
For Cc1ccc(C2SCC(C(=O)O)N2C(=O)c2ccc(F)cc2)cc1 (centres undefined) the results were Calb biofilm kill 9.
Screening Cc1nc(-c2ccc(S(=O)(=O)Nc3ccc(Br)cc3Cl)s2)cs1 returned Calb biofilm kill 15.
Screening O=C(c1ccco1)N1CCN(Cc2nc(Cc3ccccc3)no2)CC1 returned Calb biofilm kill 5.
COc1ccc(S(=O)(=O)NNC(N)=S)cc1 was read as Calb biofilm kill 15.
Screening Cc1nnsc1S(=O)(=O)Cc1ccccc1C(F)(F)F returned Calb biofilm kill 18.
`Cc1c(-c2cc(C(=O)O)on2)cnn1C` gave Calb biofilm kill 9.
`O=c1cc(Nc2ccc3c(c2)OCCO3)[nH]c(=O)n1Cc1ccc(F)cc1` gave Calb biofilm kill 12.
`CC(NS(=O)(=O)c1ccc(Cl)cc1)C(c1cccs1)N1CCN(C)CC1` (centres undefined) gave Calb biofilm kill 13.
`CS(=O)(=O)N(CC(=O)Nc1ccc(S(=O)(=O)N2CCCC2)cc1)c1cccc(F)c1` gave Calb biofilm kill 24.

Structural class, the compounds so far containing fluorine (12)
`O=C(Cc1ccc(S(=O)(=O)N2CCCCC2)s1)Nc1ccc(F)cc1F` gave Calb biofilm kill -15.
Screening CC(C)CC(NC(N)=O)C(=O)OCC(=O)Nc1ccc(OC(F)F)cc1 (centres undefined) returned Calb biofilm kill -4.
For Nc1nc(-c2cc(Cl)cc(Cl)c2OC(F)F)cs1 the results were Calb biofilm kill 5.
`CC(=O)Nc1ccc(CN2CCN(Cc3ccc(F)c(F)c3)C(CCO)C2)cc1` (centres undefined) gave Calb biofilm kill -1.
`CCOC(=O)CC1COCCN1Cc1cn(C)nc1-c1ccccc1F` (centres undefined) gave Calb biofilm kill 7.
For O=C(c1ccncc1)N1N=C2CCCCCC2C1(O)C(F)(F)F (centres undefined) the results were Calb biofilm kill 8.
Screening CCN1CCN(c2ccc(NC(=O)c3ccc(C#N)cc3F)cc2Cl)CC1 returned Calb biofilm kill 0.
O=c1c2oc3ccccc3c2ncn1Cc1ccc(F)cc1 was read as Calb biofilm kill 12.
For Cc1ccc(C2SCC(C(=O)O)N2C(=O)c2ccc(F)cc2)cc1 (centres undefined) the results were Calb biofilm kill 9.
Screening Cc1nnsc1S(=O)(=O)Cc1ccccc1C(F)(F)F returned Calb biofilm kill 18.
`O=c1cc(Nc2ccc3c(c2)OCCO3)[nH]c(=O)n1Cc1ccc(F)cc1` gave Calb biofilm kill 12.
`CS(=O)(=O)N(CC(=O)Nc1ccc(S(=O)(=O)N2CCCC2)cc1)c1cccc(F)c1` gave Calb biofilm kill 24.

Remaining list, next part:
For CCOC(=O)c1cn(-c2c(C)n(C)n(-c3ccccc3)c2=O)c2c(F)c(F)c(F)cc2c1=O the results were Calb biofilm kill 15.
For C=CCn1c(SCC(=O)NCCCC(=O)OCC)nc2scc(-c3ccco3)c2c1=O the results were Calb biofilm kill 14.
For NC(=S)NNC(=O)/C(=C/c1ccc(Br)cc1)NC(=O)c1ccccc1 the results were Calb biofilm kill 18.
Screening O=C(CSc1n[nH]c(=O)[nH]c1=O)c1ccc(Cl)cc1Cl returned Calb biofilm kill 7.
`CCOc1ccc(/C=N/Nc2nncc(-c3ccccc3)n2)cc1OC` gave Calb biofilm kill 3.
O=C1CC(N2CCN(c3ccc(F)cc3)CC2)C(=O)N1c1ccc2c(c1)OCO2 (centres undefined) was read as Calb biofilm kill 14.
Screening Cn1cnnc1SCC(=O)NCCc1ccc(Cl)cc1Cl returned Calb biofilm kill -7.
Screening CCO[C@H]1OC(C(=O)NC2CC2)=C[C@@H](C2CC2)[C@@H]1CCCO returned Calb biofilm kill 18.
`CC(NC(=O)CSCc1ccc(Br)cc1)c1ccccc1` (centres undefined) gave Calb biofilm kill 8.
Screening Cn1c(=N)n(CC(=O)c2ccccc2)c2ccccc21 returned Calb biofilm kill 5.
Cc1nnc(SC(C)C(=O)Nc2nccs2)s1 (centres undefined) was read as Calb biofilm kill 6.

Screening results deposited in PubChem by PCMD.
